TRPML1 agonist – activates the human TRPML1 channel. AID 624414. activation, % (concentration not given with the values). actives 0.12% (n = 410,000). TRPML1-expressing cells, Ca2+ dye fluorescence, FDSS; host cell line not named in the record; reference of the full effect not given here; in the data active = activation above about 50%; inconclusive = about 30% to 50%; inactive = below about 30%; further: 0% is about no effect; the text of the record puts the active cut at 80%
Target sequence (Q9GZU1 whole entry, looked up): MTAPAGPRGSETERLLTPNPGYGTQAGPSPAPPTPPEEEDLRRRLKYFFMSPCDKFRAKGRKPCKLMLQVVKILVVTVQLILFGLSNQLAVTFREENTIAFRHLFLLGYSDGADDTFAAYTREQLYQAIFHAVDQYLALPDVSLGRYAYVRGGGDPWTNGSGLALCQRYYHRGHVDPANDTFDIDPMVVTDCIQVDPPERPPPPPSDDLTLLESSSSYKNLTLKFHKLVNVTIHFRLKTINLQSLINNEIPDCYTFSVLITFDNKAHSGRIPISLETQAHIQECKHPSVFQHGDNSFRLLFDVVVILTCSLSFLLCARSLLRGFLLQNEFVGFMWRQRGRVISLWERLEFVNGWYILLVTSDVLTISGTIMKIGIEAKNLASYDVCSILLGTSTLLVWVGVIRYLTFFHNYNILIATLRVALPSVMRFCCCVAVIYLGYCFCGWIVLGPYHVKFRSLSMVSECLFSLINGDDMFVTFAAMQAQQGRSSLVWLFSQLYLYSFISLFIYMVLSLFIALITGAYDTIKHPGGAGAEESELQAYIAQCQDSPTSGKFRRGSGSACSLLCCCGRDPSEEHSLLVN
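Kinetic FDSS Ca2+ read in Tet-induced TRPML1-DL cells (ABD Ca8 dye plus quencher, 45-90 min RT loading): baseline, then compound, then 110 s agonist window; EC80 agonist 54-4 at 4uM final added afterwards for a 110 s antagonist window.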
Six1-Eya2 inh – Six1/Eya2 interaction inhibition. actives 0.56% (n = 360,000). AlphaScreen GST-Six1/His-Eya2 binding, biochemical; hits give low values; control for the full effect not named in the record. Q15475+O00167. activity change, % (no concentration beside the values); in the data active = activity change below about -65%; inconclusive = about -30% to -65%; inactive = above about -30%; further: on the % scale 0 is the no-effect control and ±100 the full control effect; compound concentration not given in the record
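AlphaScreen with GST-Six1 and His-Eya2 (5X mix: 250 nM and 500 nM), glutathione donor and nickel acceptor beads; buffer 50 mM Tris pH 8.0, 300 mM NaCl, 1 mM TCEP; 1 h at 37 C in the dark.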
D2 PAM – positive allosteric modulators of human D2 dopamine receptor. P14416. AID 624464. DiscoveRx D2 beta-arrestin cells, luminescence, 90 min; 100% = 57 uM dopamine signal. actives 0.23% (n = 360,000). potentiation, % (concentration not given with the values); active = potentiation of 50% or more; inconclusive = 30% to 50%; inactive = 30% or less;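 further: compound concentration not given in the record; tested on top of an EC20 dose of dopamine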
Target sequence (P14416 whole entry, looked up): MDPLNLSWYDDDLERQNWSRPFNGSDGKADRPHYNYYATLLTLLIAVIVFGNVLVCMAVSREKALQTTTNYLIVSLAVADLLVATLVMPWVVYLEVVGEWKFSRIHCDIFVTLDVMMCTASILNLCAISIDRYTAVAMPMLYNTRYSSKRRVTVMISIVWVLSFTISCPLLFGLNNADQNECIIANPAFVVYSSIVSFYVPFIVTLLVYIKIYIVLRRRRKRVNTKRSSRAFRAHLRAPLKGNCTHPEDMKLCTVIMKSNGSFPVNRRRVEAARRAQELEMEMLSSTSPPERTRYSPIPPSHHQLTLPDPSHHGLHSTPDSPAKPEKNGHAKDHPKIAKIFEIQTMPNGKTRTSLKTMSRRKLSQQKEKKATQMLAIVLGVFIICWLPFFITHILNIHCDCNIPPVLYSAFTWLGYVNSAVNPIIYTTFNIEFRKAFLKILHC
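D2 cells co-treated with compound plus 50 nM dopamine (EC20) for 90 min at 37 deg C to detect potentiation. Beta-arrestin recruitment was read as enzyme-fragment luminescence after 1 h at ambient temperature. Full response was set by 57 uM dopamine.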
CtBP-E1A inh – inhibitors of CtBP/E1A interaction; AlphaScreen GST-E1A/His-CtBP binding, 1536-well; hits give low values; control for the full effect not named in the record; activity change, % (concentration not given with the values); actives 0.49% (n = 340,000); AID 651724; in the data active means activity change below about -65%; inconclusive means about -30% to -65%; inactive means above about -30%; further: on the % scale 0 is the no-effect control and ±100 the full control effect
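Protein mix (5X: 125 nM each GST-E1A, His-CtBP) was incubated with pinned compound 2 h at 37 deg C in dark, in 50 mM Tris pH 8.0 buffer with 300 mM NaCl. Glutathione donor and nickel acceptor beads followed; AlphaScreen signal read after 1 h.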
D2 ag – activates the human D2 dopamine receptor; P14416; DiscoveRx PathHunter D2 beta-arrestin, luminescence, 90 min; 100% = 57 uM dopamine signal; actives 0.084% (n = 360,000); activation, % (no concentration beside the values); in the data active = activation above about 40%; inconclusive = about 15% to 40%; inactive = below about 15%; further: compound concentration not given in the record; the text of the record calls up to 30% inactive
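DiscoveRx PathHunter D2 beta-arrestin cells (2,100/well) attached overnight, then compound-stimulated 90 min at 37 C in HBSS/10 mM HEPES/0.1% Tween-20 buffer; beta-galactosidase complementation read by luminescence after 1 h at ambient temperature. Dopamine 57 uM final (EC100) as control.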
PINK1 modulator – PINK1 expression modulation; PINK1 immunofluorescence, high-content cytometry, 24 h; actives 0.2% (n = 410,000); Potency, µM (doses to about 76.6 µM), for the others: at the highest dose activation (PINK1 increase), most hits filed as activators; AID 624263; active = well fitted activation curve with a large enough effect; inconclusive = small, poorly fitted or top-dose-only effect; inactive = flat fitted curve, though single readings scatter; cell line not stated here;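 further: potency means the concentration at half of the fitted maximal effect; % of control where 0% means no effect; nearly all actives have a fitted effect of over 65% in size; a mitochondrial uncoupler was the plate control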
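A stable cell line was treated with compounds at 5 concentrations for 24 hours, with CCCP as control. PINK1 levels and mitochondrial localization were measured by immunofluorescence with mitochondrial, cell and nuclear markers after fixation, read by laser-scanning cytometry.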
* marks the source's active call; other numbers are inactive results; ? = inconclusive; nt = no result given; & = joins results of further samples; ! = not active in a repeat. This is a subset. The share of hits here may be higher or lower than overall.

Short keys: A = TRPML1 agonist; B = Six1-Eya2 inh; C = D2 PAM; D = CtBP-E1A inh; E = D2 ag; F = PINK1 modulator
[1] O=[N+]([O-])c1cncn1CCN1CCOCC1
  A: -0.4; B: 0; C: 2; D: -1; E: -2.6; F: -2.8%
[2] CCCC(=O)O[C@]1(C(=O)CCl)[C@@H](C)C[C@H]2[C@@H]3CCC4=CC(=O)C=C[C@]4(C)[C@@]3(F)C(=O)C[C@@]21C
  A: 1.7; B: 1; C: -11; D: -5; E: -6.3; F: 5.2%
[3] COc1ccc(C(=O)c2ccccc2)c(O)c1
  A: 2.1; B: 11; C: 5; D: 22; E: -0.1; F: -1.0%
[4] CC(=O)OCC(=O)[C@@]1(O)CC[C@H]2[C@@H]3CCC4=CC(=O)C=C[C@]4(C)[C@@]3(F)[C@@H](O)C[C@@]21C
  A: -0.4; B: 0; C: -6; D: -3; E: -3.9; F: 2.4%
[5] CC(Cc1cccc(C(F)(F)F)c1)NCCOC(=O)c1ccccc1 (stereo unspecified)
  A: -0.2&-0.5; B: 6&-2; C: -37&-9; D: 6&-1; E: -4.9&-4.7; F: 9.8%&0.3%
[6] CCC(C(=O)Nc1ccccc1N1CCCC1)c1ccccc1 (stereo unspecified)
  A: 1.6; B: -20; C: -12; D: -4; E: -7.4; F: -2.5%
[7] CN[C@@H]1[C@H](O)[C@H](NC)[C@H]2O[C@@]3(O)C(=O)C[C@@H](C)O[C@H]3O[C@@H]2[C@H]1O
  A: 0.0; B: 6; C: -3; D: nt; E: -8.0; F: 0.4%
[8] COC(=O)N/N=C/c1c[n+]([O-])c2ccccc2[n+]1[O-]
  A: -0.1; B: 0; C: -4; D: 4; E: 1.1; F: -0.2%
[9] CC1(C)O[C@@H]2C[C@H]3[C@@H]4C[C@H](F)C5=CC(=O)C=C[C@]5(C)[C@@]4(F)[C@@H](O)C[C@]3(C)[C@]2(C(=O)CO)O1
  A: 0.0; B: 1; C: 1; D: 0; E: -3.4; F: 0.4%
[10] Cc1nc2c3ccccc3nc(NNC(=O)CCC(=O)N3CCN(c4ccccc4F)CC3)n2n1
  A: -0.8&-0.8; B: 0; C: -10; D: -4; E: 2.2; F: 1.4%&-2.6%
[11] CCN(CCCCOC(=O)c1ccc(OC)c(OC)c1)C(C)Cc1ccc(OC)cc1 (stereo unspecified)
  A: -0.6; B: -5; C: -31; D: -1; E: -2.9; F: 0.2%
[12] CC(C)(C)NCC(O)COc1cccc2c1C[C@H](O)[C@H](O)C2 (stereo partly specified)
  A: -0.6; B: -2; C: -11; D: -2; E: -2.9; F: 0.5%
[13] CC1O[C@@H](OCC2O[C@@H](Oc3cc(O)c4c(c3)OC(c3ccc(O)cc3)CC4=O)[C@H](O)[C@@H](O)[C@@H]2O)[C@H](O)[C@H](O)[C@H]1O (stereo partly specified)
  A: nt; B: 4; C: -30; D: 0; E: -5.5; F: 1.4%
[14] CCCCN(CCCC)CCCOC(=O)c1ccc(N)cc1
  A: -0.3; B: -5; C: -33; D: 0; E: -3.8; F: 0.9%
[15] CC(C)NNC(=O)c1ccncc1
  A: 0.5; B: 1; C: 9; D: -11; E: 9.6; F: 1.1%
[16] Nc1c2ccccc2nc2ccccc12
  A: -0.3&0.9; B: -1&-21; C: -58&-30; D: 0&-16; E: 1.3&-3.2; F: 0.2%&-2.3%
[17] CC(=O)Oc1ccc2c(C)cc(=O)oc2c1
  A: 8.2; B: -8; C: -7; D: -6; E: -1.7; F: 1.0%
[18] O=C(Nc1cc(-c2ccccc2)nn1-c1ccccc1F)c1ccc([N+](=O)[O-])cc1
  A: 1.2; B: -3; C: -9; D: 0; E: 5.2; F: 5.4%
[19] O=C(NC1CCN(CCc2c[nH]c3ccccc23)CC1)c1ccccc1
  A: 0.5; B: 0; C: -39; D: 2; E: 2.5; F: 0.5%
[20] CCc1ccccc1OC[C@@H](O)CN[C@H]1CCCc2ccccc21
  A: 0.3; B: 0; C: -9; D: 0; E: -3.0; F: -0.9%
[21] O=C(O)c1cc(=O)c2ccccc2o1
  A: 0.3; B: 0; C: -15; D: 11; E: -6.4; F: 0.1%
[22] COc1cc(C2Oc3cc(C4Oc5cc(O)cc(O)c5C(=O)C4O)ccc3OC2CO)ccc1O (stereo unspecified)
  A: 0.3; B: -4; C: 3; D: -16; E: 3.1; F: 3.1%
[23] CCCCCCCCCCCCCCC[C@@H](O)[C@@H](N)CO
  A: -0.2; B: 4; C: -4; D: 9; E: 4.6; F: 0.7%
[24] CN(C)CC/C=C1/c2ccccc2COc2ccc(CC(=O)O)cc21
  A: 0.1; B: 7; C: -11; D: 6; E: -4.9; F: 0.9%
[25] C[C@@H]1C[C@H]2[C@@H]3CCC4=CC(=O)C=C[C@]4(C)[C@@]3(Cl)[C@@H](O)C[C@]2(C)[C@@]1(OC(=O)c1ccco1)C(=O)CCl
  A: 1.3; B: 1; C: -7; D: 2; E: 11; F: 1.7%
[26] N=c1nc(N2CCCCC2)cc(N)n1O
  A: 0.5&0.5; B: 2&-3; C: -4&1; D: -7&0; E: 3.7&-5.4; F: 0.3%&2.0%
[27] CN(C)S(=O)(=O)n1cc(/C=C(\NC(=O)c2ccccc2)C(=O)NCCCn2ccnc2)c2ccccc21
  A: -1.0&-0.1; B: -7; C: -10; D: -4; E: 0.2; F: 0.1%&-3.7%
[28] CCCC1(c2ccccc2)NC(=O)N(CC(=O)N(C)Cc2c(F)cccc2Cl)C1=O (stereo unspecified)
  A: 0.7; B: -3; C: -3; D: 4; E: 1.8; F: 2.4%
[29] O=C1c2c(O)ccc(O)c2C(=O)c2c(NCCNCCO)ccc(NCCNCCO)c21
  A: -0.5&-0.5; B: -85*!; C: -25&-29; D: -82*; E: -6.3&-6.4; F: -6.7%&-1.1%
[30] O=C(O)Cc1sc(-c2ccccc2)nc1-c1ccc(Cl)cc1
  A: 2.0; B: -6; C: -11; D: -11; E: -3.6; F: 2.2%
[31] CC(C)(C)NCC(O)COc1cccc2c1CC(O)C(O)C2 (stereo unspecified)
  A: -0.9; B: 3; C: 6; D: 5; E: -3.5; F: 2.7%
[32] CC[C@]12CCCN3CCc4c(n(c5ccccc45)[C@](O)(C(=O)OC)C1)[C@@H]32
  A: -1.0; B: 2; C: 13; D: 1; E: -4.0; F: -0.2%
[33] CCCOc1ccc(C(=O)OCCN(CC)CC)cc1N
  A: -0.8; B: 3; C: -7; D: -1; E: -3.8; F: 0.3%
[34] Cc1scc2c1N(C(=O)CN1CCN(C)CC1)c1ccccc1NC2=O
  A: 0.2; B: 1; C: -13; D: -5; E: 2.9; F: -0.2%
[35] Cc1cc(=O)oc2cc(O)ccc12
  A: nt; B: 7; C: -13; D: 1; E: -1.8; F: 0.1%
[36] Cc1c(C)n(Cc2ccccc2)c2ccc(C(=O)OCCN(C)C)cc12
  A: 0.7; B: ?; C: -13; D: -23; E: -4.6; F: -0.1%
[37] O=C(O)Cc1cn(-c2ccccc2)nc1-c1ccc(Cl)cc1
  A: -0.3; B: 7; C: -16; D: -13; E: 0.7; F: -1.1%
[38] CCc1cccc(CC)c1NC(=O)CN(CC(=O)O)CC(=O)O
  A: -0.3; B: -1; C: -5; D: -4; E: -1.7; F: 0.9%
[39] CCCCOc1cc(C(=O)OCCN(CC)CC)ccc1N
  A: 0.6&-0.8; B: 5&0; C: -13&-1; D: -20&-1; E: -4.5&-3.9; F: 0.3%&0.5%
[40] CCCC(=O)O[C@]1(C(=O)COC(C)=O)CC[C@H]2[C@@H]3C[C@H](F)C4=CC(=O)C=C[C@]4(C)[C@@]3(F)[C@@H](O)C[C@@]21C
  A: 1.1; B: -6; C: 8; D: -1; E: -5.5; F: 4.7%
[41] Cn1ccc2cc3c(cc21)CCN3C(=O)Nc1cccnc1
  A: 0.4; B: -6; C: -32; D: -20; E: -4.9; F: 0.7%
[42] O=C(c1ccccn1)N(Cc1cccs1)C1(C(=O)NC2CCCCC2)CCCCC1
  A: 2.1; B: 2; C: -8; D: -1; E: -6.9; F: -0.1%
[43] CCCCCCCCCCCCCCCC(O)C(N)CO (stereo unspecified)
  A: -0.2; B: 0; C: -8; D: 0; E: -2.9; F: 0.3%
[44] Nc1ncnc2c1c(-c1ccc(Oc3ccccc3)cc1)cn2C1CCCC1
  A: 0.6; B: -10; C: -12; D: -27; E: -1.8; F: -0.5%
[45] CN(C)C/C=C(\c1ccc(Br)cc1)c1cccnc1
  A: 1.6; B: 5; C: -38; D: 8; E: -8.2; F: 0.1%

An excerpt from above in order of molar mass, smallest number first:
Short keys: A = TRPML1 agonist; B = Six1-Eya2 inh; C = D2 PAM; D = CtBP-E1A inh; E = D2 ag; F = PINK1 modulator
[35] Cc1cc(=O)oc2cc(O)ccc12
  A: nt; B: 7; C: -13; D: 1; E: -1.8; F: 0.1%
[41] Cn1ccc2cc3c(cc21)CCN3C(=O)Nc1cccnc1
  A: 0.4; B: -6; C: -32; D: -20; E: -4.9; F: 0.7%
[33] CCCOc1ccc(C(=O)OCCN(CC)CC)cc1N
  A: -0.8; B: 3; C: -7; D: -1; E: -3.8; F: 0.3%
[31] CC(C)(C)NCC(O)COc1cccc2c1CC(O)C(O)C2 (stereo unspecified)
  A: -0.9; B: 3; C: 6; D: 5; E: -3.5; F: 2.7%
[37] O=C(O)Cc1cn(-c2ccccc2)nc1-c1ccc(Cl)cc1
  A: -0.3; B: 7; C: -16; D: -13; E: 0.7; F: -1.1%
[38] CCc1cccc(CC)c1NC(=O)CN(CC(=O)O)CC(=O)O
  A: -0.3; B: -1; C: -5; D: -4; E: -1.7; F: 0.9%
[36] Cc1c(C)n(Cc2ccccc2)c2ccc(C(=O)OCCN(C)C)cc12
  A: 0.7; B: ?; C: -13; D: -23; E: -4.6; F: -0.1%
[32] CC[C@]12CCCN3CCc4c(n(c5ccccc45)[C@](O)(C(=O)OC)C1)[C@@H]32
  A: -1.0; B: 2; C: 13; D: 1; E: -4.0; F: -0.2%
[44] Nc1ncnc2c1c(-c1ccc(Oc3ccccc3)cc1)cn2C1CCCC1
  A: 0.6; B: -10; C: -12; D: -27; E: -1.8; F: -0.5%
[42] O=C(c1ccccn1)N(Cc1cccs1)C1(C(=O)NC2CCCCC2)CCCCC1
  A: 2.1; B: 2; C: -8; D: -1; E: -6.9; F: -0.1%
[40] CCCC(=O)O[C@]1(C(=O)COC(C)=O)CC[C@H]2[C@@H]3C[C@H](F)C4=CC(=O)C=C[C@]4(C)[C@@]3(F)[C@@H](O)C[C@@]21C
  A: 1.1; B: -6; C: 8; D: -1; E: -5.5; F: 4.7%

Screening data deposited in PubChem by National Center for Advancing Translational Sciences (NCATS).
